# Screening results (PubChem BioAssay)
# Ecoli rRNA inh – reduced GFP signal of wild-type E. coli, primary screen, bacterial rRNA inhibitor project, GFP/RFP fluorescence, OD600, single point; E. coli WT GFP vs humanized-ribosome RFP mutants, 24 h; hits give low values; DMSO median 0, no signal -100; 350,000 compounds, 1.6% hits; GFP signal change (wild-type ribosome), % (concentration not given with the values); AID 720706, 2013;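 active = significant combined selectivity score with lowered wild-type GFP, culture density cut under 30%, mutant RFP and density less affected; inactive = any of these conditions unmet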; also: one replicate is shown; some compounds called inactive have numbers as strong as hits
# Ecoli rRNA inh OD600 – recorded beside Ecoli rRNA inh, whose call it bears; OD600 change, %; measured here: OD600 growth;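 optical density of the mix in the first replicate; 0 = DMSO median and -100 = no signal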
# Ecoli rRNA inh RFP – recorded beside Ecoli rRNA inh, whose call it bears; RFP signal change, %; measured here: RFP humanized mutant strains;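 first replicate; 0 = DMSO median and -100 = no signal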
# Active calls of the source: *.
SMILES	Ecoli rRNA inh OD600	Ecoli rRNA inh RFP	Ecoli rRNA inh
COc1ccc(NC(=O)N(C)C[C@H]2Oc3ncc(C#CCN(C)C)cc3C(=O)N([C@@H](C)CO)C[C@H]2C)cc1	-8	-3.7	0
Cc1ccc(NC(=O)COC(=O)c2ccc3ncsc3c2)c(C)c1	8	3.6	12
O=C(C[C@@H]1C=C[C@@H](NC(=O)c2ccccc2)[C@@H](CO)O1)NCCc1ccncc1	2	-1.0	0
CO[C@H]1CN(C)C(=O)c2cc(NC(=O)Nc3ccccc3F)ccc2OC[C@@H](C)N(C(C)=O)C[C@H]1C	-1	-3.2	-2
CC(=O)C1=CCC(c2ccc(Cl)c(Cl)c2)N(S(=O)(=O)c2ccc(C)cc2)C1 (stereo unspecified)	-15	-0.5	-6
CC(C)CC#Cc1cnc2c(c1)C(=O)N([C@H](C)CO)C[C@H](C)[C@H](CN(C)C(=O)CC1CC1)O2	6	1.0	1
CO[C@H]1CC[C@H]2CCOc3ccc(C#N)cc3C(=O)N(C)CCCC(=O)N(C)C[C@@H]1O2	0	-1.3	3
COCC(=O)NC[C@@H]1[C@H](c2ccc(-c3ccccc3)cc2)[C@H](CO)N1C(C)=O	-1	0.5	-3
CCOC(=O)C(Cc1ccccc1)C1(C)Oc2ccccc2O1 (stereo unspecified)	-7	-10	0
COc1ccc(NC(=O)Nc2ccc3c(c2)C(=O)N([C@H](C)CO)C[C@H](C)[C@@H](CN(C)S(=O)(=O)c2ccccc2)OCCCC[C@@H](C)O3)cc1	8	-2.2	3
COCC(=O)N(C)C[C@H]1Oc2ncc(-c3ccc(C)cc3)cc2C(=O)N([C@@H](C)CO)C[C@@H]1C	-3	-2.9	1
CC(=O)N1CCCCN2[C@@H](CO)[C@@H](c3ccc(-c4ccc(F)cc4)cc3)[C@@H]2C1	6	-1.5	1
C[C@@H]1CN([C@@H](C)CO)S(=O)(=O)c2ccc(C3=CCCC3)cc2O[C@H]1CN(C)S(=O)(=O)c1ccc(F)cc1	-3	5.2	1
C/C=C/c1ccc([C@H]2[C@@H](CN(C)C(C)=O)N(C(=O)NCCC)[C@H]2CO)cc1	19	-0.8	6
COc1cccc(C(O)c2nc(-c3ccc(Cl)cc3)cs2)c1 (stereo unspecified)	-70	-3.6	-32
CC1(C(=O)NS(=O)(=O)Cc2ccccc2C(F)(F)F)CCN1C(=O)Cc1ccsc1 (stereo unspecified)	7	1.0	7
CCCC#Cc1ccc2c(c1)O[C@@H](CN(C)C(=O)C1CCCCC1)[C@H](C)CN([C@H](C)CO)S2(=O)=O	-18	6.9	-4
O=C(C[C@H]1C[C@H]2c3cc(NC(=O)Nc4ccc(F)cc4)ccc3O[C@H]2[C@H](CO)O1)NC1CCCC1	10	0.7	2
Cc1ccc(S(=O)(=O)Nc2ccc3c(c2)CC(=O)N([C@@H](C)CO)C[C@H](C)[C@@H](CN(C)S(=O)(=O)c2cn(C)cn2)O3)cc1	2	-2.9	3
CO[C@H]1CN(C)C(=O)c2ccc(NC(=O)C3CCOCC3)cc2OC[C@@H](C)N(C(C)=O)C[C@@H]1C	-4	-2.5	1
COc1ccc(NC(=O)C2(C)Cc3c(-c4cccc(C(F)(F)F)c4)ccnc3O2)cc1OC (stereo unspecified)	-25	-3.5	6
NC(=O)c1ccsc1NC(=O)COC(=O)Cc1ccccc1[N+](=O)[O-]	-18	-1.8	-13
CCC(=O)N1C[C@@H]2[C@H](c3ccccc31)[C@@H](CO)N2C(=O)Nc1ccccc1F	12	-2.0	3
COc1cccc(-c2ccc([C@@H]3[C@H](CO)N4CCCCN(C(=O)NC(C)C)C[C@@H]34)cc2)c1	13	-1.3	-1
O=C(C[C@@H]1C=C[C@H](NC(=O)Nc2ccc3c(c2)OCO3)[C@H](CO)O1)NCc1ccc2c(c1)OCO2	7	-0.9	1
COc1cccc(C(=O)Nc2ccc3c(c2)C(=O)N(C)[C@H]2CC[C@H](CC(=O)NCC4CC4)O[C@H]2CO3)c1	0	-1.2	-1
C[C@H](CO)N1C[C@H](C)[C@H](CN(C)C(=O)NC2CCCCC2)Oc2c(NC(=O)c3ccncc3)cccc2C1=O	2	-0.4	-4
CO[C@@H]1CN(C)C(=O)c2cc(NS(=O)(=O)c3ccc(Cl)cc3)ccc2OC[C@@H](C)N(C)C[C@@H]1C	2	1.1	-1
CSCC[C@@H](CO)NC(=O)[C@H]1O[C@@H](n2ccc(=O)[nH]c2=O)[C@H](O)[C@@H]1O	24	-2.1	16
COc1cccc(C(=O)N2CCC[C@H]2C(=O)N2CCC[C@H]2C(=O)N[C@H](C)c2ccccc2)c1	12	0.2	9

# Reprinted at random: 3 entries already listed, in no set order.
SMILES	Ecoli rRNA inh OD600	Ecoli rRNA inh RFP	Ecoli rRNA inh
COc1ccc(NC(=O)Nc2ccc3c(c2)C(=O)N([C@H](C)CO)C[C@H](C)[C@@H](CN(C)S(=O)(=O)c2ccccc2)OCCCC[C@@H](C)O3)cc1	8	-2.2	3
CO[C@@H]1CN(C)C(=O)c2cc(NS(=O)(=O)c3ccc(Cl)cc3)ccc2OC[C@@H](C)N(C)C[C@@H]1C	2	1.1	-1
Cc1ccc(S(=O)(=O)Nc2ccc3c(c2)CC(=O)N([C@@H](C)CO)C[C@H](C)[C@@H](CN(C)S(=O)(=O)c2cn(C)cn2)O3)cc1	2	-2.9	3

# Further compounds
SMILES	Ecoli rRNA inh OD600	Ecoli rRNA inh RFP	Ecoli rRNA inh
C[C@@H]1CN([C@@H](C)CO)C(=O)c2cc(NS(C)(=O)=O)ccc2O[C@@H](C)CCCCO[C@@H]1CN(C)Cc1ccc(C(=O)O)cc1	6	0.9	3
COc1cccc(C(=O)N[C@H](C(=O)N2CCC[C@H]2C(=O)NCCc2ccccc2Cl)C(C)C)c1	-4	6.8	-2
CNC[C@@H]1Oc2c(NS(=O)(=O)c3ccc(Cl)cc3)cccc2C(=O)N([C@@H](C)CO)C[C@H]1C	8	0.4	5
O=C(SCc1c(O)c2ccccc2oc1=O)c1ccccc1	-57	-6.9	-34
C[C@H](CO)N1C[C@H](C)[C@H](CN(C)S(=O)(=O)c2cccs2)OCCCC[C@H](C)Oc2ccc(NC(=O)Nc3ccccc3)cc2C1=O	3	1.2	0
C[C@@H]1CN([C@H](C)CO)C(=O)c2cccc(NC(=O)Nc3ccccc3)c2O[C@H]1CN(C)Cc1ccc(Oc2ccccc2)cc1	8	0.9	-2
CC(C)c1nc(SCC(=O)N2CCCCC2)c2c(=O)n(C)c(=O)n(C)c2n1	-5	0.6	-8
CCCCN1C[C@H](CSC)[C@@H](CC(=O)NC)C1=O	5	-1.8	2
CCCNC(=O)N1CC2(C1)CN(C(C)=O)[C@@H](CO)c1[nH]c3cc(OC)ccc3c12	11	-1.8	4
O=C(C[C@@H]1C=C[C@@H](NC(=O)c2ccc(F)cc2)[C@@H](CO)O1)NCCc1ccncc1	1	0.6	5
C[C@@H]1CN([C@@H](C)CO)C(=O)Cc2cc(NC(=O)Nc3ccc4c(c3)OCO4)ccc2O[C@H]1CN(C)Cc1ccc(Oc2ccccc2)cc1	8	-1.9	6
CO[C@@H]1CN(C)C(=O)c2cc(NC(=O)C3CC3)ccc2OC[C@@H](C)N(Cc2ccccc2)C[C@H]1C	-11	3.8	-5
CC(C)NC(=O)Nc1cccc2c1O[C@H](CN(C)Cc1ccc(C(=O)O)cc1)[C@H](C)CN([C@H](C)CO)C2=O	7	-2.3	4
C[C@H]1CCCCO[C@@H](CN(C)Cc2ccc3c(c2)OCO3)[C@@H](C)CN([C@@H](C)CO)C(=O)c2cc(NC(=O)Nc3ccc4c(c3)OCO4)ccc2O1	-10	3.6	7
O=c1[nH][nH]c2c1[C@H](CCc1cccc(Cl)c1)O[C@H](C1CCCC1)C2	-66	-1.3	-31
C[C@@H]1CN([C@@H](C)CO)C(=O)Cc2cc(NC(=O)Nc3ccccc3)ccc2O[C@@H]1CN(C)C(=O)Nc1ccc(F)cc1	5	1.6	2
CC(C)OC(=O)N(C)C[C@H]1OCc2ccccc2-c2ccccc2C(=O)N([C@@H](C)CO)C[C@@H]1C	1	-4.5	-1
COc1ccc(NC(=O)N(C)C[C@@H]2Oc3ccc(NS(C)(=O)=O)cc3CC(=O)N([C@H](C)CO)C[C@@H]2C)cc1	1	-1.6	1
COc1cccc(CN(C)C(=O)[C@@H](Cc2ccccc2)NC(=O)[C@H]2O[C@@H](n3ccc(=O)[nH]c3=O)[C@H](O)[C@@H]2O)c1	8	5.9	-3
Cc1ccc(S(=O)(=O)N(C)C[C@H]2OCCCC[C@@H](C)Oc3ccc(NC(=O)Nc4ccc(C(F)(F)F)cc4)cc3C(=O)N([C@@H](C)CO)C[C@@H]2C)cc1	-13	-6.5	-6
COCC(=O)Nc1ccc2c(c1)OC[C@H](C)N(CC1CC1)C[C@@H](C)[C@@H](OC)CN(C)C2=O	3	-0.7	3
CC(C)NC(=O)Nc1ccc2c(c1)C(=O)N([C@@H](C)CO)C[C@@H](C)[C@H](CN(C)S(=O)(=O)c1cccs1)OCCCC[C@@H](C)O2	-1	1.5	0
C/C=C/c1cnc2c(c1)C(=O)N([C@H](C)CO)C[C@@H](C)[C@@H](CN(C)Cc1cncnc1)O2	6	-2.0	7
COC(=O)[C@@]1(Sc2ccc(C)cc2)CC(=O)N(C(=O)C2CC2)[C@@H]1c1ccccc1	2	7.5	7
N#C[C@H]1[C@H](c2ccc(C#CC3CCCCC3)cc2)[C@H](CO)N1C(=O)Cc1ccccn1	-58	17	-25
CNC[C@@H]1Oc2cc(C#Cc3ccccn3)ccc2S(=O)(=O)N([C@@H](C)CO)C[C@H]1C	-6	0.2	1
C[C@@H]1CN([C@@H](C)CO)S(=O)(=O)c2ccc(-c3ccc(C(=O)N(C)C)cc3)cc2O[C@H]1CN(C)C(=O)C1CC1	-13	2.1	-6
C[C@@H]1CN([C@@H](C)CO)C(=O)c2cc(C#Cc3cccc(F)c3)cnc2O[C@@H]1CN(C)C(=O)C1CCOCC1	-4	0.5	0
C[C@@H]1CN([C@@H](C)CO)C(=O)c2cc(NC(=O)Cc3ccccc3)ccc2O[C@@H](C)CCCCO[C@@H]1CN(C)S(=O)(=O)c1cn(C)cn1	-5	-0.4	-4
CCC(=O)N1[C@H](CO)[C@H](c2ccccc2)[C@@H]1CN(CC1CC1)S(C)(=O)=O	8	1.1	0
CC(C)C[C@H]1CNC(=S)N1C[C@H]1CCCN1C[C@H](Cc1ccc(O)cc1)N1C[C@H](Cc2ccccc2)N(CC2CCCCC2)C1=S	3	0.4	1
C[C@H]1CN([C@@H](C)CO)C(=O)Cc2cc(NC(=O)Nc3ccc4c(c3)OCO4)ccc2O[C@H]1CN(C)C(=O)Nc1ccc(C(F)(F)F)cc1	2	-1.8	1
CC(=O)Nc1cc(-c2cccc(C(=O)NCCN(C)C)c2)cn2c(-c3ccc(C(C)=O)cc3)cnc12	16	11	6
CC(C)CC#Cc1ccc2c(c1)O[C@@H](CN(C)Cc1cccc(F)c1)[C@H](C)CN([C@@H](C)CO)S2(=O)=O	-1	-4.8	-4
CC(C)NC(=O)Nc1ccc2c(c1)CC(=O)N([C@H](C)CO)C[C@@H](C)[C@H](CN(C)S(=O)(=O)c1ccc(Cl)cc1)O2	-7	6.1	-7
O=C(C[C@H]1CC[C@H](NC(=O)C2CCOCC2)[C@H](CO)O1)Nc1ccc(-c2ccccc2)cc1	9	-2.4	2
CCCN1[C@@H]2Cn3c(cccc3=O)[C@H]1[C@@H](C(=O)NC1Cc3ccccc3C1)[C@@H]2CO	2	-1.2	3
Cc1ccc(-c2ccc3c(c2)O[C@@H](CN(C)C(=O)C2CC2)[C@H](C)CN([C@H](C)CO)S3(=O)=O)cc1	-14	2.6	-4
C[C@H]1CN([C@@H](C)CO)C(=O)Cc2cc(N(C)C)ccc2O[C@H]1CN(C)S(=O)(=O)c1ccccc1	8	-1.5	0
CC(C)C[C@H]1COc2cc(N3CC[C@@H](O)C3)ccc2S(=O)(=O)N1	4	-3.9	2
COc1ccc(S(=O)(=O)N(C)C[C@H]2Oc3ccc(NS(C)(=O)=O)cc3C(=O)N([C@H](C)CO)C[C@@H]2C)cc1	-3	-0.4	1
C[C@@H]1CCCCO[C@@H](CN(C)Cc2ccc(Cl)c(Cl)c2)[C@@H](C)CN([C@@H](C)CO)C(=O)c2cc(NS(=O)(=O)c3cccs3)ccc2O1	4	3.6	0
CN(C)C(=O)c1ccc(-c2ccc3c(c2)[C@@H]2[C@@H](CCN2C(=O)c2ccccc2F)[C@@H](CO)N3)cc1	0	0.5	-8
C[C@H](CO)N1C[C@H](C)[C@@H](CN(C)C(=O)C2CCCCC2)OCCCC[C@H](C)Oc2ccc(NS(=O)(=O)c3ccc(Cl)cc3)cc2C1=O	-12	1.6	-2
COCC(=O)Nc1ccc2c(c1)C(=O)N(C)[C@H]1CC[C@H](CC(=O)N3CCc4ccccc4C3)O[C@@H]1CO2	5	0.3	0

# Three of the compounds above, with each value named:
CC(C)C[C@H]1CNC(=S)N1C[C@H]1CCCN1C[C@H](Cc1ccc(O)cc1)N1C[C@H](Cc2ccccc2)N(CC2CCCCC2)C1=S
  Ecoli rRNA inh OD600 = 3 | Ecoli rRNA inh RFP = 0.4 | Ecoli rRNA inh = 1

C[C@@H]1CCCCO[C@@H](CN(C)Cc2ccc(Cl)c(Cl)c2)[C@@H](C)CN([C@@H](C)CO)C(=O)c2cc(NS(=O)(=O)c3cccs3)ccc2O1
  Ecoli rRNA inh OD600 = 4 | Ecoli rRNA inh RFP = 3.6 | Ecoli rRNA inh = 0

C[C@H](CO)N1C[C@H](C)[C@@H](CN(C)C(=O)C2CCCCC2)OCCCC[C@H](C)Oc2ccc(NS(=O)(=O)c3ccc(Cl)cc3)cc2C1=O
  Ecoli rRNA inh OD600 = -12 | Ecoli rRNA inh RFP = 1.6 | Ecoli rRNA inh = -2

# These rows are one share of the data; count on the stated rates, not on these rows.
